TRPML1 blocker: inhibitors of human TRPML1 channel. Q9GZU1. TRPML1-inducible cells, Ca2+ dye fluorescence, FDSS; stronger effect = lower value; inhibition of EC80 agonist-evoked calcium signal. activity change, negative = inhibition, % (no concentration beside the values). 0.02% of 390,000 active; in the data active means activity change below about -50%; inconclusive means about -30% to -50%; inactive means above about -30%;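 note: stimulus is agonist 54-4 at its EC80 concentration; % is set by controls: 0 for no effect and ±100 for the full control effect; compound concentration not given in the record; the text of the record puts the active cut at -80%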
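TRPML1-DL cells, Tet-induced overnight (~16 h, 37 °C) at 1,500 cells/well, were loaded with Ca8 no-wash dye plus quencher for 45-90 min at room temperature. Compounds were pinned during FDSS kinetic reading; agonist 54-4 at EC80 (4 uM final) then added.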
Menin MLL FP FL: menin-MLL binding inhibition, fluorescein peptide; Fluorescence polarization, fluorescein-MLL peptide displacement from menin; 290,000 tested, under 10 active; FP activity change, % at 61.4 µM; inconclusive = falling polarisation curve, or a change in total fluorescence; inactive = total fluorescence flat and polarisation flat or rising; no compound was filed as active; the % refers to the polarisation; negative = inhibition;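 note: % of control where 0% means no effect; inhibitors lower the polarisation; unlabelled MLL peptide was the positive control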
Sfp PPTase inh: Sfp phosphopantetheinyl transferase inhibition. Potency, µM, for the others: max response, negative = inhibition, actives largely listed as inhibitors. AID 1490. 3.5% of 310,000 active. Q9F4F7. Biochemical Sfp PPTase activity, qHTS; active = well fitted inhibition curve with a large enough effect; inconclusive = small, poorly fitted or top-dose-only effect, or another doubt; inactive = no such curve, though single readings can be large or run the other way;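 note: the enzyme is Sfp with the accession as filed and its product quenches rhodamine fluorescence; potency is the fitted concentration of half-maximal effect; 0% = enzyme reaction without inhibitor and -100% = no enzyme wells; top concentration of the series not given in the record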
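With Hepes-Na pH 7.6 buffer containing 10 mM MgCl2, Sfp (15 nM) modified BHQ-2-YbbR (12.5 uM) using rhodamine-CoA (5 uM). Two reads 30 minutes apart at 525/598 nm yielded each well's rate.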
gsp antagonist: antagonists of gsp mutant (McCune-Albright syndrome) | gsp-mutant cells, cAMP HTRF, 30 min; control for the full effect not named in the record | Potency, µM (doses to about 76.9 µM), for inactives: top-dose activity change, negative = inhibition, actives largely listed as inhibitors | 0.4% of 340,000 active | AID 624288; active = falling curve of any shape with a large fitted effect; inconclusive = falling curve, mostly with a smaller effect; inactive = flat or rising curve; cell line not stated here;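 note: intracellular cAMP measured with PDE inhibitor Ro 20-1724 present during compound exposure; potency is the fitted concentration of half-maximal effect; % is set by controls: 0 for no effect and ±100 for the full control effect; nearly all actives have a fitted effect of over 65% in size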
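HTRF cAMP measurement after 30 min RT detection following 30 min, 37C compound treatment alongside […] (added as 300 uM solution) in G418-selected cells seeded at 2000/well and grown 16–24 h.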
gsp agonist: gsp mutant agonism | gsp mutant cells, cAMP HTRF, 30 min; control for the full effect not named in the record | 0.13% of 340,000 active | AID 624287 | Potency, µM (series often up to 76.9 µM), inactives show at the highest dose activation (cAMP increase), most hits filed as activators; active = well fitted activation curve with a large enough effect; inconclusive = small, poorly fitted or top-dose-only effect, or another doubt; inactive = no such curve, though single readings can be large or run the other way; cell line not stated here;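 note: phosphodiesterase inhibitor Ro 20-1724 added with compounds to block cAMP breakdown; potency is the fitted concentration of half-maximal effect; nearly all actives have a fitted effect of over 60% in size; about a fifth of the inactives were tested at one dose only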
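Cells stably selected in G418 were plated at 2000/well, grown 16-24 hr, then given compounds in DMSO with the PDE inhibitor […] (300 uM solution added) for 30 min at 37C; cAMP was read by HTRF.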
TRPV1 potentiator: human TRPV1 potentiation | Q8NER1 | TRPV1-expressing cells, Fluo-8 calcium influx, capsaicin EC20 potentiation; host cell line not named in the record; control for the full effect not named in the record | potentiation, % at 8.33 µM | 0.02% of 320,000 active | AID 540277; active means potentiation above 80%; inconclusive means 30% to 80%; inactive means below 30%; note: 0% is about no effect
Target sequence (Q8NER1 whole entry, looked up): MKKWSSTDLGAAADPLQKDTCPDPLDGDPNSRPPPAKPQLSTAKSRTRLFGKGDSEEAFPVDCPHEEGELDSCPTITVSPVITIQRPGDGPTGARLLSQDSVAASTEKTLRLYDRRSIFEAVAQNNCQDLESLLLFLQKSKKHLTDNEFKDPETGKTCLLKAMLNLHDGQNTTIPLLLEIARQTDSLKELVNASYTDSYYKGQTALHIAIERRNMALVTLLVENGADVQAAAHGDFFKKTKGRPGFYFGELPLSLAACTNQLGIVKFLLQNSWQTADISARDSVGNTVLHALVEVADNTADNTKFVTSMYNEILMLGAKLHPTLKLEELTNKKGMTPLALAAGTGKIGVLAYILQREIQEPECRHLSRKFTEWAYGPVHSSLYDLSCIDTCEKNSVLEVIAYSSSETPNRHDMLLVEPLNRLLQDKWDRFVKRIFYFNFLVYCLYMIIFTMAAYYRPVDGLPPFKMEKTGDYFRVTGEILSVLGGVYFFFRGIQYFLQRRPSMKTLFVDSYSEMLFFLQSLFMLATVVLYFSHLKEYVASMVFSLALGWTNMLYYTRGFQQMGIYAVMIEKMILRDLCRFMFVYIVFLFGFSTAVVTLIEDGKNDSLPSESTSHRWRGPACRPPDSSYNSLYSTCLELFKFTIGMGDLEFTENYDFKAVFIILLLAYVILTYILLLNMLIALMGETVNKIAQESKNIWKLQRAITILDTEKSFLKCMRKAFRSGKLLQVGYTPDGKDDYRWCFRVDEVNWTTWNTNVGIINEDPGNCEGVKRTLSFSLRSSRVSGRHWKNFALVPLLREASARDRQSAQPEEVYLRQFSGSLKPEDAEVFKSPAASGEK
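Cells expressing TRPV1 were dye-loaded with Fluo-8 and read kinetically: 10 s baseline, 3 min after compound (agonist portion), then 2 min after EC20 capsaicin (allosteric enhancer portion). Calcium-bound dye fluorescence at 480/520 nm.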
ClpP mod: qHTS Assay for Activators of ClpP. Potency, µM (top dose mostly 57.5 µM), for the others: at the top dose activity change, negative = active. purified B. subtilis ClpP, FRET peptide cleavage, 20 min. AID 651965, 2013. 1.9% of 340,000 active; active = well fitted falling curve with a large enough effect; inconclusive = small, poorly fitted or top-dose-only effect; inactive = no such curve, though single readings can be large or run the other way; note: potency is the fitted concentration of half-maximal effect; the source files actives as falling curves though it sought activators and does not explain the sign; nearly all actives have a fitted effect of over 65% in size; many hits overshoot -100%
Target sequence (P80244 whole entry, looked up): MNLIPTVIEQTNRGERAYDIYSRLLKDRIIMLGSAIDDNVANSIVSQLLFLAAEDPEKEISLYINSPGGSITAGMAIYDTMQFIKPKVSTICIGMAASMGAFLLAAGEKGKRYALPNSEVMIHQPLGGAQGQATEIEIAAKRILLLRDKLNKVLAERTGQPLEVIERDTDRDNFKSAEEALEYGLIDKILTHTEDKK
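FRET quenching reversal measured ClpP activation: 10 microg/mL B. subtilis ClpP at pH 8 with the FRET-FV decapeptide, read at 430 nm after 320 nm excitation. The 20-min minus 0-min signal was scaled between DMSO/no-enzyme wells and ADEP (5.8 microM final).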
* marks the source's active call; other numbers are inactive results; ? = inconclusive; . = no result given; [ ] = dose if it differs, or a comment. Rows are unselected; any-hit rate near 4.9%.

SMILES | TRPML1 blocker | Menin MLL FP FL | Sfp PPTase inh | gsp antagonist | gsp agonist | TRPV1 potentiator | ClpP mod
O=C(COC(=O)c1ccc[nH]c1=O)Nc1ccc2c(c1)OC(F)(F)O2 | 8 | 1.5 | -5% | 8% | 8%[15.4 µM] | ? | .
CC(C)(C)NC(=O)c1cnn(-c2ccccc2)c1NC(=O)c1ccccc1 | 8 | 0.5 | 11% | -10% | -23% | 0 | -8.9%
COc1ccc(OCCCC(=O)OC(C)C(=O)Nc2ccc(NC(C)=O)cc2)cc1 (configuration not stated) | 4 | . | 12% | 4% | 6%[15.4 µM] | 9 | 1.6%
Cc1nc(C(=O)NCCO)cc2c1[nH]c1ccccc12 | -6 | 0.9 | 9% | -7% | -25% | -15 | 3.7%
Cc1cc(C)nc(-n2nc(C)cc2NC(=O)COC(=O)CCC(=O)c2cccs2)n1 | 11 | -2.2 | -7% | -10% | 2% | 18 | 28µM*
CCc1cccc(CC)c1NC(=O)c1ccccc1CCc1ccccc1 | 0 | 0.6 | -5% | -12% | -1%[15.4 µM] | -30 | 0.4%
COCCCN1C(=O)C(O)=C(C(=O)c2ccco2)C1c1ccc(Br)cc1 (configuration not stated) | 33 | 3.1 | 4% | 4% | ? | 2 | -2.0%
CCCCNS(=O)(=O)c1ccc(NC(=O)Cc2ccccc2[N+](=O)[O-])cc1 | -20 | 0.5 | 10% | -6% | 4%[15.4 µM] | -2 | -1.9%
Cc1cccc(Nc2nc(N)nc(N)c2N=O)c1 | -14 | . | . | 6% | -12% | . | .
CCN(CC(=O)Nc1c(F)cccc1F)C(=O)/C=C/c1ccc(OCC#N)c(OC)c1 | 15 | . | . | -1% | ? | -3 | ?
O=C(COC(=O)c1cccnc1Nc1ccccc1F)NCc1ccc2c(c1)OCO2 | -7 | -1.9 | ? | 14% | 0% | 1 | -26%
Cc1ccccc1OCCC(=O)OCC(=O)Nc1c(F)cccc1F | -5 | . | . | -1% | -3%[15.4 µM] | -3 | -13%
CCOc1ccc(NC(=O)CNC(=O)c2ccco2)cc1 | 13 | -6.3 | 6% | 5% | -2% | 8 | 0.6%
CCCCN1C=C(C(=O)c2ccccc2)C(=O)CC1 | -3 | . | . | -5% | . | . | -2.8%
N#CC1=C(SCC(N)=O)NC2=C(C(=O)c3ccccc32)C1c1ccc(Cl)cc1 (configuration not stated) | 3 | 3.2 | 2% | ? | 0% | 5 | 1.9%
CCn1c(SCc2nc(-c3ccccc3)no2)nnc1-c1ccco1 | -5 | ? | 79µM* | 2% | 28% | -27 | 0.2%
CCOC(=O)c1[nH]ncc1CN1CCCC(C(=O)c2ccc(SC)cc2)C1 (configuration not stated) | 16 | 0.1 | 6% | -17% | -13% | 10 | .
COc1ccccc1NC(=O)Nc1ccnn1C1CCN(C(=O)c2cscn2)CC1 | -8 | . | 10% | 11% | 16% | 8 | 0.6%
CC1=C(C)N(C)[C@H](c2ccccc2Br)[C@H](O)C1=O | 3 | . | . | 8% | . | . | 0.6%
Cc1cccc(NS(=O)(=O)c2ccc(C(=O)NCC3CCCO3)cc2)c1C (configuration not stated) | -7 | . | 2% | -2% | -13% | 6 | 0.7%
C=CCNC(=O)CN1CCC(O)(c2ccccc2)CC1 | 26 | 2.8 | 7% | 1% | 8% | -1 | -0.7%
COc1ccc(CCNC(=O)[C@@H](NC(=O)N2CC(=O)Nc3ccccc32)C(C)C)cc1OC | -10 | . | 7% | 9% | -20% | 2 | -1.5%
COc1ccc(CCCc2n[nH]c(=S)o2)c(C)c1 | -12 | 9.1 | ? | -11% | -41%[inhibitor] | 2 | 0.6%
COc1ccccc1NC(=O)Nc1nc(CC(=O)N2CCN(c3ccccc3OC)CC2)cs1 | -1 | . | . | ? | 0%[15.4 µM] | -6 | -2.0%
O=C(CNC(=O)c1ccncc1)N/N=C/c1cc(Br)ccc1O | 12 | 4.3 | 20% | 12% | -37%[inhibitor] | -5 | 1.3%
O=c1c2c3nc4ccccc4nc3n(/N=C/c3cccs3)c2ncn1-c1ccccc1 | . | 1.2 | -6% | . | . | 7 | .
COc1cccc(N/C=C(\C#N)c2ccc(OCCCF)cc2)c1 | 11 | 5.0 | 9% | 0% | 5% | 2 | 0.6%
CCCCCCN1CC(O)=C(c2ccccc2)C1=N | -2 | 0.6 | -5% | -13% | ? | 3 | 9.1%
COc1cc(C(=O)N/N=C/c2ccc(OC)c(CN3CCN(c4ccc(F)cc4)CC3)c2)ccc1O | -12 | 1.7 | 2% | -17% | 0% | -1 | -3.9%
COC(=O)COc1ccc(S(=O)(=O)N2CCN(c3ccc(OC)cc3)CC2)cc1 | -29 | -0.1 | 0% | -13% | 16%[15.4 µM] | -7 | .
Cc1ccccc1C(=O)Nc1nnc(-c2ccncc2)o1 | 12 | -0.3 | 1% | 2% | -2%[15.4 µM] | 6 | -0.5%
O=C(CN1CCCC1)Nc1cc(C(F)(F)F)cc(C(F)(F)F)c1 | 18 | 0.9 | 6% | 13% | -3% | -9 | .
CN(C)CCCNC(NC(=O)/C=C/c1ccccc1)C(Cl)(Cl)Cl (configuration not stated) | -9 | 0.2 | 6% | 2% | -1%[15.4 µM] | . | .
CCC(=O)N1CCc2cc(S(=O)(=O)NC(C(=O)N3CCc4ccccc4C3)C(C)C)ccc21 (configuration not stated) | 0 | 2.5 | 10% | 1% | -2% | -13 | 0.1%
COc1cc(S(=O)(=O)N2CCCCC2)ccc1NC(=O)/C=C/c1ccccc1 | 8 | 1.6 | 1% | -5% | 2% | 3 | -8.9%
O=C(CC(=O)N/N=C\c1ccccc1[N+](=O)[O-])NCCc1ccccc1 | -7 | -4.5 | 12% | -12% | ? | 4 | -1.2%
COc1ccc(Cn2nnnc2C(c2cccs2)N2CCN(c3ccccc3)CC2)cc1 (configuration not stated) | 17 | 3.1 | -3% | -16% | -13% | -7 | -1.2%
COc1ccc(-c2cc(C(F)(F)F)nc(SCC(=O)NCc3cccs3)n2)cc1 | 0 | 2.3 | -17% | 7% | ? | -18 | 35µM*
O=S(=O)(c1ccc(F)cc1)N1CCN(c2nc(-c3ccc(F)cc3)cs2)CC1 | 16 | 6.8 | -11% | 1% | ? | -16 | -2.1%
CCC(=O)NCc1csc(-c2cccs2)n1 | 8 | -0.1 | -10% | 19% | -5%[15.4 µM] | -10 | .
CCc1ccc(NC(=S)N(Cc2ccc(Cl)cc2)Cc2ccc(C(=O)O)cc2)cc1 | 38 | -3.2 | 18µM* | . | -13%[15.4 µM] | 5 | .
CCNC(=S)N=Nc1c(O)[nH]c2ccc(C(C)C)cc12 | -9 | 5.2 | -10% | 10% | -35%[inhibitor] | ? | 1.1%
COc1ccccc1NC(=S)NNC(=O)c1cc(C)nn1C | -2 | 1.6 | 16% | -8% | 10% | -4 | -2.9%
Cc1ccc(C)c(S(=O)(=O)Nc2ccccc2C(=O)Nc2ccccc2N2CCOCC2)c1 | 74 | -0.6 | 11% | -2% | 15% | ? | -7.4%
O=C(CSc1nccn1Cc1ccc(F)cc1)Nc1ccc(F)cc1F | 14 | . | 13% | -6% | 25% | -14 | -3.0%
COCCN(Cc1ccccc1)C(=O)c1cccc(S(=O)(=O)N2CCN(Cc3ccccc3)CC2)c1 | 7 | . | . | . | -54%[inhibitor] | . | -5.8%
CCCCCCNCC(=O)N1CCC(Cc2ccccc2)CC1 | -8 | -4.4 | -12% | 23% | -1%[15.4 µM] | -1 | 0.1%
COc1cc(OC)cc(C(=O)N2CCN(C(=O)c3cccnc3)CC2)c1 | -2 | -2.0 | 11% | 3% | -3% | 17 | 1.1%
COc1ccc(OC)c(S(=O)(=O)NC2CCCCNC2=O)c1 (configuration not stated) | 2 | -4.5 | 6% | 9% | 5% | -17 | -1.3%
Oc1ccc2c(c1)c1ccccc1c1ncccc21 | 6 | . | . | -7% | -40%[inhibitor] | . | -0.8%
COc1ccc([N+](=O)[O-])cc1NC(=O)CSc1nccc(C)n1 | 15 | 10 | -11% | -4% | -5% | 4 | -19%
COC(=O)c1cccc(NC(=O)CCc2ccccc2)c1 | -4 | 2.4 | 0% | 4% | -6% | -3 | -2.7%
O=C(CSc1nncc2ccccc12)Nc1ccccc1 | 17 | -3.7 | 7% | 2% | 19% | 12 | .
O=C(NCc1ccco1)c1cc(Cl)nc(Cl)c1 | 4 | -12 | 10% | 9% | -22% | 5 | .
O=C(Cn1c(-c2cscn2)nc2ccccc21)Nc1cc(F)ccc1F | 10 | 4.7 | 13% | 11% | 15% | 4 | ?
O=C(CN1C(=O)S/C(=C\C=C\c2ccccc2)C1=O)Nc1ccc(C(=O)O)cc1 | -4 | 3.2 | ? | -14% | 24% | 19 | -10.0%
O=C(O)CSCC(=O)Nc1ccccc1SCCS(=O)(=O)c1ccc(Cl)cc1 | -13 | 4.1 | ? | 2% | -34%[inhibitor][15.4 µM] | 12 | .
COC(=O)C1CCN(C(=O)CC(NC(=O)C(F)(F)F)c2cccs2)CC1 (configuration not stated) | 19 | 1.5 | 8% | 1% | ? | ? | 0.0%
Cc1cccn2c(NC(=O)c3cccs3)c(-c3ccccc3)nc12 | -13 | 4.5 | 1% | 1% | 12%[15.4 µM] | 4 | -8.0%
CCCCc1ccc(NC(=O)COC(=O)c2ccc3ncsc3c2)cc1 | 7 | . | . | . | -53%[inhibitor] | . | -2.0%

Next section.
SMILES | TRPML1 blocker | Menin MLL FP FL | Sfp PPTase inh | gsp antagonist | gsp agonist | TRPV1 potentiator | ClpP mod
CCOc1cc(N2CCOCC2)c(OCC)cc1NC(=O)COC(=O)[C@H](Cc1c[nH]c2ccccc12)NC(C)=O | 9 | 5.2 | -1% | -6% | ? | 7 | -1.6%
O=[N+]([O-])c1nn(-c2ccc(Cl)cc2)n(O)c1=NCc1ccncc1 | 25 | 1.8 | 8% | 1% | 4% | -12 | 0.2%
COC(=O)C(N)Cc1ccc(O)c(O)c1 (configuration not stated) | 2 | -0.6 | -23% | 5% | -3% | -2 | -1.8%
COc1ccc2c(c1)-c1ccccc1S(=O)(=O)N2C | -7 | -1.2 | 20% | 3% | -16% | 5 | 0.7%
